Screens as filed in PubChem BioAssay.
Rango-impB inh: qHTS Assay for Inhibitors of Rango (Ran-regulated importin-beta cargo) - Importin beta complex formation; Importin subunit beta-1 (Homo sapiens), Q14974; AID 540263, 2011; Potency, µM (doses to about 92.2 µM), for the others: at the highest dose inhibition of complex formation; actives 0.031% (n = 340,000); Rango CFP/YFP FRET sensor + importin beta, 45 min; active = rising FRET ratio curve, often small or poorly fitted; inconclusive = mostly compound fluorescence or quenching in the first reads; inactive = flat curves in all reads;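 note: potency is the fitted concentration of half-maximal effect; 0% = DMSO wells and 100% = buffer wells lacking importin beta; nearly all actives have a fitted effect of over 15% in size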
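FRET biosensor (snurportin 1 IBB flanked by EYFP and cerulean), 50 nM, with compound 5 min, then 0.125 microM importin beta in PBS, 1 mM DTT, 0.02% Tween-20, 0.1% BSA. CFP/YFP ratio read after 45 min at room temperature; pre-read flags interference.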
GLA inh pH 4.5: qHTS Assay for Inhibitors of Human alpha-Galactosidase at pH 4.5; Alpha-galactosidase A (Homo sapiens), P06280; purified enzyme, 4-MU-alpha-Gal fluorescence, pH 4.5; activity change, negative = inhibition, % at 105 µM; 230,000 tested, under 10 active; AID 1467, 2008; inconclusive = small, poorly fitted or top-dose-only inhibition, or a rising curve; inactive = flat fitted curve, though single readings scatter; no compound was filed as active;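 note: 0% = full activity with enzyme and -100% = basal without enzyme; dose as in the result columns while the protocol names 77 µM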
Target sequence (P06280 whole entry, looked up): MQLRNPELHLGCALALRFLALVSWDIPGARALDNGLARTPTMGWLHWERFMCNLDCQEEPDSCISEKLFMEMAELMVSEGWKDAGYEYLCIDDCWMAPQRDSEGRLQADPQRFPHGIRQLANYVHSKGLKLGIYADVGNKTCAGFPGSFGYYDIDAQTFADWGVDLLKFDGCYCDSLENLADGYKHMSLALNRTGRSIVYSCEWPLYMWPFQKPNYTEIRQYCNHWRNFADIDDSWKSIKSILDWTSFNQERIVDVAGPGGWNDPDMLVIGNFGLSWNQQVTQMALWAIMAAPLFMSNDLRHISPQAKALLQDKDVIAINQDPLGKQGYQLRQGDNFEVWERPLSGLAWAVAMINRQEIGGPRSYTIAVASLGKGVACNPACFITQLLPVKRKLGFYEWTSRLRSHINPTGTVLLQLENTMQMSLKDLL
Rango dissoc inh: qHTS Assay for Inhibitors of RanGTP induced Rango (Ran-regulated importin-beta cargo) - Importin beta complex dissociation | Biochemical FRET Rango-importin beta, RanGTP-induced dissociation | Potency, µM (series often up to 46.1 µM), for the others: at the top dose activity change, negative = inhibition | actives 0.071% (n = 340,000); active means falling FRET ratio curve, often poorly fitted, with flat reads before Ran was added; inconclusive means other falling curves, or compound fluorescence or quenching; inactive means flat or rising ratio curve;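 note: potency is the fitted concentration of half-maximal effect; % of control where 0% means no effect; nearly all actives have a fitted effect of over 45% in size; -100% = wells without RanGTP and RCC1; the record marks most hits as doubtful in a second field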
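Rango/importin beta premix (0.1/0.25 uM final), PBS + 1 mM DTT + 0.02% Tween-20 + 0.1% BSA; cpd 5 min RT; FRET pre-read; + RanGTP-RCC1 (0.6 uM Ran, 2 mM GTP, 0.2 uM RCC1); 45 min RT; FRET post-read, ex 430, em 486/530 nm.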
miR-21 reporter: qHTS Assay for Modulators of miRNAs and/orActivators of miR-21; HeLa miR-21 FLuc reporter, luciferase, 48 h; Potency, µM (highest dose often 38.3 µM), for the others: top-dose reporter change, positive = more light; 340,000 tested, under 10 active; active = well fitted rising curve with a large enough effect; inconclusive = small, poorly fitted or top-dose-only effect; inactive = no such curve, though single readings can be large or run the other way;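 note: % of control where 0% means no effect; miR-21 action dims this reporter so a rising signal means less miR-21 action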
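HeLa miR-21-FLuc reporter line, endogenous miR-21; 2000 cells/well in DMEM/10% FBS; compound titration up to ~40uM final, 48 h, 37 degree Celsius; luciferase detection reagent, 15 min lysis, CCD luminescence.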
Numbers without * were called inactive; ? = inconclusive; . = not tested or not shown; [ ] = another dose, or the depositor's remark.

SMILES	Rango-impB inh	GLA inh pH 4.5	Rango dissoc inh	miR-21 reporter
CCC1(C)OC(=O)N(CCCn2ccnc2C)C1(C)O (configuration not stated)	-1.6%	9	-5%	-6%
CCNC(=O)C(Cc1ccccc1)NC(=O)OCc1ccccc1 (configuration not stated)	-2.2%	0	-14%	-1%
Cc1ccccc1OCC(=O)Nc1cc(S(=O)(=O)N2CCOCC2)ccc1N1CCCC1	-0.3%	.	3%	.
Cc1ccc(C(=O)N(CC(=O)Nc2sc(C)c(C)c2C(N)=O)C2CCCC2)cc1	0.7%	.	23%	24%
CC(=O)N1CCN(c2ccnc3cc(Cl)ccc23)CC1	0.2%	1	6%	9%
COc1ccc(NC(=O)CSc2ncnc3c2cnn3Cc2ccccc2)cc1OC	-0.3%	6	-4%	9%
CCCCn1nc2cc(C(=O)NCCc3ccc(C)cc3)ccc2c1OCC	-5.5%	4	-18%	-2%
CC(C#N)Sc1ncnc2sc3c(c12)CCC3 (configuration not stated)	-4.0%	2	-10%	-27%
O=C(O)CCn1c(SCCOc2ccccc2F)nc2ccccc21	-0.2%	.	5%	-25%
CCc1ccc(N=C2NC(=O)/C(=C/c3cc(OC)c(OC)c(OC)c3)S2)cc1	?	.	-16%	-7%
COc1ccc(NC(=S)N2CCN(C/C=C/c3ccccc3)CC2)cc1OC	2.9%	-4	1%	-9%
NS(=O)(=O)c1ccc(CCNC(=O)c2ccc([N+](=O)[O-])s2)cc1	3.6%	.	?	13%
O=C1/C(=C/c2cccnc2)Cc2ccc(Cl)cc21	-0.1%	.	-2%	.
COc1ccc(C(=O)O)cc1S(=O)(=O)N(C)C	-0.1%	6[21.1 µM]	1%	10%
Cc1nnc(C)n1/N=C/c1ccc(-c2ccccc2)cc1	-4.1%	-14	1%	-10%
COc1ccc(NCC(=O)N/N=C(\C)c2cc3ccccc3o2)cc1	-0.7%	10	-6%	-17%
Cc1ccc2cc(C(c3nnnn3C3CCCC3)N(Cc3ccccc3)Cc3ccco3)c(=O)[nH]c2c1 (configuration not stated)	-2.8%	-5	1%	1%
O=C(O)CSc1nc(-c2ccccc2)nc2c1oc1ccccc12	1.3%	11	-9%	-10%
CCc1ccc(CN2CCC(Oc3ccc(C(=O)N4CCCCC4)cc3)CC2)cc1	0.2%	.	-6%	11%
Cc1ccc(C2NNC(=O)C2NC(=O)c2ccccc2)cc1 (configuration not stated)	0.8%	5	0%	-43%
O=C(c1cn(-c2ccccc2)nc1-c1ccc(Br)cc1)N1CCOCC1	-1.2%	0	0%	-11%
Brc1ccc(-n2c(SCc3nc4ccccc4[nH]3)nnc2-c2ccncc2)cc1	0.2%	2	-19%	-2%
CC(=O)N1SC(N)=NC1c1ccccc1 (configuration not stated)	5.7%	3	5%	2%
O=C(CSc1nnc(-c2ccccn2)n1Cc1ccco1)c1ccccc1	-4.5%	8	-27%	-5%
Cc1ccc(S(=O)(=O)n2nc(-c3ccco3)nc2N)cc1	2.2%	-11	-1%	-1%
Further entries:
SMILES	Rango-impB inh	GLA inh pH 4.5	Rango dissoc inh	miR-21 reporter
CCOc1ccc(S(=O)(=O)N(CC)CC(=O)N2CCOCC2)cc1C	1.3%	.	0%	9%
Cc1nc2ccccn2c1-c1ccnn1S(=O)(=O)c1ccc(F)cc1	-0.9%	0	-9%	11%
COc1ccc(C(=O)/C=C/C(=O)N(Cc2ccccc2)C(C(=O)NC2CCCCC2)c2ccncc2)c(O)c1 (configuration not stated)	-0.2%	-2	15%	-2%
COc1ccc([N+](=O)[O-])cc1NC(=O)Nc1ccc(OC)c(OC)c1	0.7%	0	4%	26%
Nc1nc(-c2sc3nc4c(cc3c2N)CCCC4)nc(N2CCOCC2)n1	?	7	?	-28%
CCCc1nnc2n1N=C(c1ccc(OC)c(OC)c1)CS2	5.6%	-7	41%	-21%
COc1cc(OC)cc(OCC(O)Cn2cnc(-c3ccccc3)c2)c1 (configuration not stated)	?	-1	-10%	-1%
C/C(=N\NC(=O)c1ccoc1C)c1cccnc1	-5.2%	-7	-19%	-64%
COc1ccc2[nH]c(=O)c(CN(Cc3cccnc3)C(=S)NCC3CCCO3)cc2c1 (configuration not stated)	-0.9%	4	22%	1%
CCN(CC)C(=S)NC(=O)Cc1ccccc1	5.2%	3	0%	-3%
COc1cc(/C=C2/SC(=S)N(CCC(=O)Nc3ccccc3)C2=O)cc(OC)c1OC	7.0%	.	-4%	-3%
Cc1ccc(C(=O)c2ccccc2C(=O)OCC(=O)N2C(C)CCCC2C)cc1 (configuration not stated)	1.2%	.	-10%	.
CN(Cc1ccccc1F)C(=O)c1ccccc1Sc1ccccc1C#N	0.3%	.	-9%	-1%
Cc1cc(OCC(=O)Nc2ccc(S(=O)(=O)N3CCN(C)CC3)cc2)ccc1Br	-0.5%	.	11%	-3%
CCCN(C(=O)c1cc(Cl)nc2ccccc12)C1CCS(=O)(=O)C1 (configuration not stated)	2.7%	.	6%	.
CCOc1ccccc1N(CC(=O)NCCc1ccccc1)C(=O)CCC(=O)Nc1ccccn1	-2.7%	.	11%	0%
COc1ccc(CCNc2nc(N3CCCCC3)nc(N3CCCCC3)n2)cc1OC	-1.1%	-11	1%	-1%
Cc1ccc(Cl)c(NC(=O)CN(C)CC(=O)Nc2ccc(F)c(F)c2F)c1Cl	0.3%	2	-9%	11%
CC(C)OP(=O)(OC(C)C)C(Nc1ccccn1)c1ccc(F)cc1 (configuration not stated)	0.4%	-14	2%	-6%
COc1ccc(C2CC(=O)Oc3ccc(OC)cc32)cc1 (configuration not stated)	-2.0%	.	-2%	.
O=C(CSc1nnnn1C1CC1)Nc1cc(S(=O)(=O)N2CCCC2)ccc1Cl	?	.	19%	.
O=C(CN1C(=O)/C(=C/c2ccccc2F)Sc2ccccc21)NCCCN1CCOCC1	-1.7%	.	?	1%
O=C(O)c1ccc(COc2ccccc2[N+](=O)[O-])o1	-1.3%	-7	1%	-6%
COc1ccc(C(=O)OCCOc2ccccc2C(C)=O)c(O)c1	0.3%	1	2%	-13%
CCOC(=O)c1sc2nc(C)nc(SC(C)C(=O)NC3CC3)c2c1C (configuration not stated)	3.8%	.	-4%	.

Part of the list above in another layout:
Under each structure: Rango-impB inh	GLA inh pH 4.5	Rango dissoc inh	miR-21 reporter
COc1ccc(C2CC(=O)Oc3ccc(OC)cc32)cc1 (configuration not stated)
 : -2.0%	.	-2%	.
O=C(CSc1nnnn1C1CC1)Nc1cc(S(=O)(=O)N2CCCC2)ccc1Cl
 : ?	.	19%	.
O=C(CN1C(=O)/C(=C/c2ccccc2F)Sc2ccccc21)NCCCN1CCOCC1
 : -1.7%	.	?	1%
O=C(O)c1ccc(COc2ccccc2[N+](=O)[O-])o1
 : -1.3%	-7	1%	-6%
COc1ccc(C(=O)OCCOc2ccccc2C(C)=O)c(O)c1
 : 0.3%	1	2%	-13%
CCOC(=O)c1sc2nc(C)nc(SC(C)C(=O)NC3CC3)c2c1C (configuration not stated)
 : 3.8%	.	-4%	.

The listing picks up, repeating the 3 entries before the break.
SMILES	Rango-impB inh	GLA inh pH 4.5	Rango dissoc inh	miR-21 reporter
O=C(O)c1ccc(COc2ccccc2[N+](=O)[O-])o1	-1.3%	-7	1%	-6%
COc1ccc(C(=O)OCCOc2ccccc2C(C)=O)c(O)c1	0.3%	1	2%	-13%
CCOC(=O)c1sc2nc(C)nc(SC(C)C(=O)NC3CC3)c2c1C (configuration not stated)	3.8%	.	-4%	.
CC(=O)c1ccc(NC(=O)C2CC(=O)N(C(C)C)C2)cc1 (configuration not stated)	5.9%	-7	3%	-1%
CCOC(=O)C1(CCCc2ccccc2)CCN(C(=O)C(C)n2cncn2)CC1 (configuration not stated)	-1.7%	4	12%	-4%
CCN(CC(=O)N1CCOCC1)S(=O)(=O)c1ccc(Cl)cc1	-1.2%	.	2%	-1%
Cc1[nH]c2ccccc2c1C(=O)CSc1cccc[n+]1[O-]	1.4%	-2	-6%	1%
CC1(C)CC(=O)C(=CN2CCN(C(=O)c3ccco3)CC2)C(=O)C1	-0.5%	-10	2%	-2%
O=C(O)CCC(=O)N1CCOc2ccc(Cl)cc21	3.0%	-5	2%	-1%
CCOC(=O)c1nnn(-c2nonc2-n2cccc2)c1CN1CCCCC1	2.3%	-7	-8%	-8%
CCn1c(=O)cc(SCC(=O)NCC2CCCO2)c2ccccc21 (configuration not stated)	3.4%	7	-13%	0%
Clc1cccc(CNCCNCc2cccc(Cl)c2)c1	1.6%	13	3%	-7%
O=C(c1cccs1)N1CCC(c2nc3ccccc3s2)CC1	0.3%	0	10%	1%
COc1ccc(C(CC(=O)NCCN2CCOCC2)NS(=O)(=O)c2ccc(C)cc2)cc1 (configuration not stated)	-2.9%	-3	1%	3%
Cc1ccc(C(C)C)c(OCC(=O)NS(=O)(=O)c2ccc(Cl)cc2)c1	?	.	8%	6%
CC(CNC(=O)CCc1ccccc1)NC(=O)CCc1ccccc1 (configuration not stated)	-4.1%	.	1%	.
C[C@H](CO)N1C[C@H](C)[C@@H](CN(C)C(=O)NC2CCCCC2)Oc2c(NS(=O)(=O)c3cn(C)cn3)cccc2C1=O	4.8%	.	5%	.
O=[N+]([O-])c1ccc(NNC(=S)Nc2ccccc2)cc1	-0.4%	?	?	19%
O=C(O)CCc1ccc(-c2ccc(Cl)cc2)n1CCC(=O)O	-1.9%	9	-8%	-5%
Cc1cc(Cl)cc(C)c1OCC(=O)O	2.1%	4	-8%	-2%
O=C(CCCc1nc(-c2ccccc2)no1)NCc1cccnc1	0.0%	7	-10%	0%
COc1ccc(-c2coc3c(CN4CCOCC4)c(O)ccc3c2=O)cc1	-6.7%	-9	1%	-4%
Cc1cc(C)n(CC(O)CN2C(=O)NC(C)(C)C2=O)n1 (configuration not stated)	7.0%	-9	-2%	-1%
Cc1cc(C)c2[nH]c(C(=O)Nc3ccc(F)cc3Br)cc2c1	0.9%	.	1%	-26%
Cc1ccc(NC(=O)c2cc(-c3ccc(C)o3)nc3ccccc23)nc1	?	-3	-6%	-4%
Cc1ccc(S(=O)(=O)NC(C(=O)N2CCOCCOCCOCCOCC2)c2ccccc2)cc1 (configuration not stated)	0.9%	-6	8%	-2%
Cc1ccc(CNC(=O)/C=C/c2ccc(S(=O)(=O)NCc3ccco3)cc2)cc1	-5.9%	-7	17%	-2%
COc1cc(NC(=O)c2cc([N+](=O)[O-])ccc2N2CCOCC2)ccc1NC(=O)c1ccco1	-3.5%	.	-1%	-1%
The listing continues:
SMILES	Rango-impB inh	GLA inh pH 4.5	Rango dissoc inh	miR-21 reporter
COC(=O)Cc1c(O)ccn(Cc2ccccc2OC)c1=O	-0.8%	-3	-6%	-3%
O=C(Nn1c(-c2ccc(Br)cc2)nc2ccccc2c1=O)c1cccnc1	-3.6%	4	-12%	2%
C(=NOCCc1ccccc1)c1cccnc1	2.4%	.	-11%	.
O=C1CCc2cc(S(=O)(=O)NCCC(=O)NC3CCN(Cc4ccccc4)CC3)ccc2N1	-2.7%	5	7%	-2%
Nc1nc2ccccc2n1CCOc1ccc(Cl)cc1	1.2%	.	2%	0%
CC1=C(C(=O)OC(C)C)C(c2ccco2)NC(=O)N1 (configuration not stated)	-1.8%	6	22%	0%
CCCCCn1c(N2CCN(Cc3ccccc3)CC2)nc2c1c(=O)[nH]c(=O)n2C	-1.9%	-1	-3%	-4%
Clc1ccc(CN2C3=NCCN3c3ccccc32)cc1Cl	-5.9%	9	-5%	10%
Cn1c(=O)c2cc(S(=O)(=O)NCCC(=O)N3CC=C(c4ccccc4)CC3)ccc2n(C)c1=O	0.6%	-20	-1%	10%
CCN(CC)Cc1oc(CO)cc(=O)c1O	0.5%	4	-13%	-2%
COc1ccc2[nH]cc(CCNC(=O)Cc3ccc(Br)cc3)c2c1	-13%	.	15%	-5%

Not all compounds are listed. The share of hits here may be higher or lower than overall.
